ALR inh – inhibitors of human sulfhydryl oxidase ALR | P55789 | hit rate 3.8% among 290,000 | inhibition, % (test concentration not listed) | AID 485317 | purified ALR, DTT oxidation, H2O2 HRP-luminol luminescence;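 active = mean and each replicate at 75% or more; inconclusive = only one of the two met; inactive = neither met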;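 also: stock transfer was 7.5 nL into about 7.5 µL; 0% = neutral wells and 100% = wells with inactivated enzyme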
Target sequence (P55789 whole entry, looked up): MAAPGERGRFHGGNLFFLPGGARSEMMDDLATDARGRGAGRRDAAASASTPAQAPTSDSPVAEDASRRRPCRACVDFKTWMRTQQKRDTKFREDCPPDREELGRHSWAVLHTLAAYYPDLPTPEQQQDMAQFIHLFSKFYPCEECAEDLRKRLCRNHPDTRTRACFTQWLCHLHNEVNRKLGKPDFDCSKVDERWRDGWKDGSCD
B2AR ag – activates human beta-2 adrenergic receptor causing internalization | hit rate 0.43% among 340,000 | response, % (no concentration beside the values) | Am2.2-beta2AR cells, FAP receptor internalization, flow cytometry; reference of the scale not given here | P07550 | AID 504454;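 active = response above a set limit, near 3 SD of response in nonfluorescent compounds, cut at about 42% in these data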;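 also: stock transfer was 100 nL into about 11 µL; a reference agonist was the positive control; negative values mostly stem from fluorescent compounds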
Target sequence (P07550 whole entry, looked up): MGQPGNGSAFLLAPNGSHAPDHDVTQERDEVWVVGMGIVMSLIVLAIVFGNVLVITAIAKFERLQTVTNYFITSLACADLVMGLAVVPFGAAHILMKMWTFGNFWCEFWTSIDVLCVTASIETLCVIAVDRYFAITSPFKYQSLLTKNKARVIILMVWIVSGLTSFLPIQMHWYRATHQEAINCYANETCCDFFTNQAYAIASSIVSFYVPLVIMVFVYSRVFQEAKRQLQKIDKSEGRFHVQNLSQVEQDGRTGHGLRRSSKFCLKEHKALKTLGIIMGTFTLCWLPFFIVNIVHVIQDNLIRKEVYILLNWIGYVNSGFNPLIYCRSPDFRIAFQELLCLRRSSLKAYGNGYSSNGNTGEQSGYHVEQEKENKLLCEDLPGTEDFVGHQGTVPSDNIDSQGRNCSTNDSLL
RanGTP-Imp inh – disruptors of Ran-importin-beta complex formation – biochemical, FRET, CFP-Ran, YFP-importin-beta, homogeneous, primary screen; cell-free CFP-Ran/YFP-importin-beta FRET ratio; inhibition, % (test concentration not listed); hit rate 1.1% among 300,000;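 active = most replicates above 15%; inconclusive = exactly half above 15%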;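 also: 0% = DMSO wells and 100% = Ran loaded with GDP instead of GTP; wells of about 40 µL received 100 nL stock; the first replicate is given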
Vif TR-FRET – HIV-1 Vif–A3G interaction blockers – biochemical, TR-FRET, GST-Vif 1-94, biotin-A3G peptide, dose response retest, primary screen (AID 1117319) | TR-FRET GST-Vif / biotin-A3G peptide binding; higher % means a stronger effect; test concentration not given here; strong numbers were not always called active | one-dose inhibition, %; IC50 in µM for titrated hits | hit rate 0.57% among 260,000;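 active = above the screen mean plus three standard deviations and confirmed in dose response; inconclusive = results disagree or hit not tested in dose response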;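 also: Vif residues 1-94 fused to GST binding biotinylated APOBEC3G peptide 110-148; 0% = full assay without inhibitor and 100% = GST in place of GST-Vif; retest series ran down from 100 µM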
LANA-H2B inh – blocks KSHV LANA binding to histone H2A/H2B; Q9QR71; cell-free LANA-H2A/H2B peptide, fluorescence polarization; inhibition, % (no concentration beside the values); hit rate 0.6% among 320,000; AID 2629; in the data active = inhibition mostly above about 10%, no sharp cut-off; inactive = mostly below about 6.7%;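 also: stock transfer was 7.5 nL into about 10 µL; 0% = median of vehicle wells and 100% = median of positive control wells; one replicate is shown; the record names a cut of 25% in any replicate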
HNF4A DNA FP – change in binding of human HNF4 alpha to DNA; P41235; HNF4a-FITC DNA binding, fluorescence polarization, 1 h; activity change, % at 10 µM; hit rate 0.3% among 360,000; in the data active = activity change above about 30%, passing the limit was not always enough;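 also: controls were the assay level and a saturating level of protein; the project sought stronger binding though the title names inhibitors; some compounds called inactive have numbers as strong as hits; positive values seem to mean higher polarization but the record does not say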
Target sequence (P41235 whole entry, looked up): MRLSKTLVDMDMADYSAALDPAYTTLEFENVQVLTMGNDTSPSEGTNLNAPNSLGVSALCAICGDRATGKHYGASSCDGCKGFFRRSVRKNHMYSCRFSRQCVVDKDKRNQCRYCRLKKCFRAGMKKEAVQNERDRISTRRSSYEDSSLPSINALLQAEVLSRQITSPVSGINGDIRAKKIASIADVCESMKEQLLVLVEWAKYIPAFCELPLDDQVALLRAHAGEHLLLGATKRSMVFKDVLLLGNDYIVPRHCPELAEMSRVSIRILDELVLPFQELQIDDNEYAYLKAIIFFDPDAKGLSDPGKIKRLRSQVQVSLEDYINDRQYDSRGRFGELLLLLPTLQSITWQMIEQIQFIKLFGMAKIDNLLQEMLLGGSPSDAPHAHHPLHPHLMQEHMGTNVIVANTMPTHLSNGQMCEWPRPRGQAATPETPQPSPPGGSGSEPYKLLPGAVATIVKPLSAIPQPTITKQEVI
Calb FLC – affects C. albicans growth with fluconazole. C. albicans CaCi-2 (fluconazole-resistant clinical isolate) + fluconazole, Alamar Blue growth, 48 h. growth inhibition, % (test concentration not listed). hit rate 0.57% among 300,000;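 active = most replicates above 75%; inconclusive = exactly half above 75%; inactive = most below 75%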;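 also: all wells also contain fluconazole at 8 µg/ml as a sub-toxic cotreatment; 0% = median of DMSO wells and 100% = median of geldanamycin control wells; wells of about 8 µL received 7.5 nL stock; the first replicate is given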
Starred values were filed as active, the others as inactive; ? = inconclusive; · = not tested or not shown. Hits appear at their usual frequency; about 6.3% have a hit in one of these screens.

no. | Compound | ALR inh | B2AR ag | RanGTP-Imp inh | Vif TR-FRET | LANA-H2B inh | HNF4A DNA FP | Calb FLC
1 | COC(=O)[C@@H]1C[C@@]2(O)[C@H](O)[C@H](O)[C@H](O)C[C@H]2N1Cc1cc(F)ccc1F | · | 19 | 4.6 | · | 1.8 | -7.5 | -5
2 | c1ccc(-c2noc(CSc3nc4ccccc4o3)n2)cc1 | 86* | -19 | -4.2 | 18% | 1.9 | 1.9 | 2
3 | CCN(C(=O)c1ccc2c(Cl)c3c(nc2c1)CCC3)c1ccc(C)c(C)c1 | -6 | -6 | -3.7 | -3% | -3.0 | -0.4 | 1
4 | COc1cccc(C(C(=O)NC2CCCCC2)N(C(=O)c2ccco2)c2ccc(-n3cnnn3)c(C)c2)c1 (centres undefined) | 0 | -6 | 1.3 | 14% | -1.7 | -2.4 | -2
5 | Cc1nn(-c2ccccc2)c(C)c1C(=O)OC(C)C(=O)Nc1ccc(C(N)=O)cc1 (centres undefined) | · | -8 | · | 2% | -1.4 | 3.4 | ·
6 | COc1ccc(/C=N/NC(=O)CSCC(=O)Nc2ccccc2)cc1OC | -3 | 2 | 6.2 | 18% | 1.0 | -4.1 | 7
7 | NC(=O)C1CCN(CC(=O)Nc2nccs2)CC1 | 25 | 2 | -2.1 | -1% | -5.5 | 1.6 | 1
8 | CCOC(=O)C1CCN(C(=O)CC(C)S(=O)(=O)c2ccc3c(c2)NC(=O)CO3)CC1 (centres undefined) | -9 | 5 | -2.8 | · | 3.1 | 0.7 | -9
9 | C#CCn1c(S(=O)(=O)Cc2ccc(OC)cc2)nc(-c2ccccc2)c1-c1ccccc1 | -8 | 2 | 4.2 | 9% | -2.7 | -1.1 | 21
10 | COc1ccc(C2=CC(=O)C[C@H](c3ccc(F)cc3)C2)cc1OC | -11 | -8 | · | · | -4.2 | -0.4 | ·
11 | COc1cccc(-n2c(-c3ccco3)nc3nc4ccccc4nc32)c1 | 7 | -1 | -0.8 | 12% | 1.0 | 6.5 | 1
12 | Cc1ccc(C)c(S(=O)(=O)/N=C2\C=C(NS(=O)(=O)c3ccccc3)C(=O)c3ccccc32)c1 | -12 | 40 | 3.6 | · | 31* | 4.0 | 67
13 | COC(=O)c1ccccc1OC(=O)c1cc[n+]([O-])cc1 | 1 | 0 | -0.4 | 11% | -2.8 | 1.3 | -7
14 | Cn1c(N)c(C(=O)COC(=O)c2ccc(S(=O)(=O)N3CCCCC3)cc2)c(=O)n(C)c1=O | -1 | · | -3.6 | · | 7.4 | · | 16
15 | O=c1c2cc([N+](=O)[O-])ccc2nc2n1CCCC2 | -11 | 15 | 1.2 | 3% | 5.9 | -1.6 | 4
16 | O=C(c1ccccc1F)N1CCN(C(=O)C(c2ccccc2)c2ccccc2)CC1 | -21 | -2 | 2.4 | -5% | 2.7 | -1.4 | 6
17 | CCOP(=O)(OCC)c1nc(-c2cccc3ccccc23)oc1N1CCCCC1 | -32 | 8 | ? | -11% | -3.3 | -0.6 | ?
18 | N#CCCn1c(C(C#N)(CCC#N)CCC#N)nc2ccccc21 | 0 | 1 | 8.9 | 24% | 1.5 | -1.7 | 1
19 | CCCC1C(c2ccco2)NC(c2ccco2)CC1(C)O (centres undefined) | 14 | 3 | -0.8 | 6% | -0.4 | 2.8 | 89*
20 | N#C/C(=C\c1ccc(O)c(O)c1)C(=O)NCCc1ccccc1 | 98* | -3 | · | · | 2.6 | -2.6 | ·
21 | Cc1cc(C)c(S(=O)(=O)n2ccc(-c3ccc(OCCN(C)c4ccccn4)cc3)n2)c(C)c1 | -5 | 3 | -2.9 | -1% | 0.3 | 2.1 | -6
22 | O=C(CN1CCOCC1)Nc1ccc2c(c1)CCC2 | · | 18 | 1.3 | 27% | 0.0 | 0.6 | -5
23 | CCCOc1ccc(NC(=O)CC2C(=O)Nc3ccccc3N2CC(=O)N2CCCC2)cc1 (centres undefined) | 38 | 6 | · | -4% | 2.3 | -1.3 | ·
24 | COc1ccc(CCC(=O)NCc2ccco2)cc1 | · | -4 | 1.0 | 22% | 3.4 | -2.4 | 21
25 | COc1ccc(NC(=O)C(=O)N/N=C\c2ccc(CNC(=O)C(=O)Nc3ccc(C)c(C)c3)o2)c(OC)c1 | -3 | · | -0.5 | · | -3.1 | · | 3
26 | O=C(c1ccc(Cl)cc1)N1CCN(c2ccc([N+](=O)[O-])c(NCc3cccnc3)c2)CC1 | -27 | · | -5.6 | -5% | -0.5 | 2.0 | -1
27 | CC(C)(C)n1nc2c(c1NC(=O)c1cc3ccccc3o1)CSC2 | -5 | 3 | -2.3 | -5% | -0.2 | -3.2 | 24
28 | O=C(COc1ccccc1)n1nc(-c2ccc(Cl)cc2)nc1NCc1ccco1 | -1 | 0 | -3.2 | -1% | -1.6 | 1.9 | -12
29 | Cc1cc(C)cc(NC(=O)c2nccnc2C(=O)O)c1 | 0 | 1 | 3.2 | 6% | -3.9 | 1.7 | -3
30 | CSc1nnc2c(n1)[nH]c1c(C)cccc12 | -3 | -2 | 0.1 | 4% | 3.3 | -2.0 | 1
31 | Cc1ccc(NC(=O)COC(=O)c2cc(C)nc3ccccc23)c([N+](=O)[O-])c1 | -8 | -1 | 0.7 | 10% | -0.2 | 2.6 | -17
32 | Cc1noc(C)c1CN1C(=O)c2cccc([N+](=O)[O-])c2C1=O | -9 | 7 | -1.1 | 0% | 1.1 | -3.9 | 3
33 | COC(=O)c1sc(NC(=O)CSc2nc3cccnc3n2C)nc1C | -13 | -2 | 1.0 | · | 1.2 | -3.8 | -3
34 | Cn1c(N)c(C(=O)Nc2cccc(Cl)c2)c(=O)n(C)c1=O | -1 | -11 | 4.3 | 0% | 0.2 | 1.9 | -5
35 | Nc1nc(NCc2ccco2)nn1-c1ccccc1 | -4 | -9 | 1.0 | -3% | 4.7 | 2.6 | 3
36 | CS(=O)(=O)Nc1ccc(C(=O)Nc2ccccc2Sc2ccccc2)cc1 | · | -3 | 4.1 | 0% | · | -0.8 | 16
37 | COCc1c(Br)c(C)nc(OCC(=O)N/N=C/c2cc(C)n(-c3ccc([N+](=O)[O-])cc3)c2C)c1C#N | -7 | -2 | -1.1 | 26% | -2.7 | 0.7 | ?
38 | CN1CCC(OC(=O)c2ccco2)CC1 | 0 | -4 | 2.8 | · | 2.8 | 0.1 | -18
39 | COc1ccc(NC(=O)OC(CN2CCCCC2)C(F)(F)F)cc1 (centres undefined) | -3 | -4 | -0.3 | 8% | 0.5 | 0.5 | -1
40 | Cc1cnc(C)c(N2CCN(Cc3nc(-c4ccccc4)no3)CC2)n1 | · | -10 | 4.3 | · | -5.3 | -1.3 | -4
41 | CC1CCN(CCCCOc2ccc(C(=O)c3ccccc3)cc2)CC1 | -7 | -11 | -2.1 | 1% | -6.7 | 1.5 | -5
42 | COc1cc(C)nc(NC(=O)COc2ccc(Cl)cc2C)n1 | · | -8 | -2.4 | -1% | -0.3 | 1.5 | -11
43 | O=C1ON=C(c2ccccc2)/C1=C/c1ccccc1 | · | 8 | -6.5 | · | -1.8 | 1.0 | 9
44 | C/C(=N/NC(=O)c1ccncc1)c1ccc2c(c1)OCO2 | -7 | 1 | 2.3 | -3% | 5.3 | -0.8 | -5
45 | CCCCCC(=O)Oc1cccc(N2C(=O)C3CCCCC3C2=O)c1 (centres undefined) | -4 | 4 | 3.2 | · | -2.6 | -0.4 | -23
46 | CC1(C)C2CCC1(CS(=O)(=O)Nc1ccc(S(=O)(=O)N3CCCCC3)cc1)C(=O)C2 (centres undefined) | -6 | -9 | 4.6 | 16% | -2.4 | -3.3 | -7
47 | O=C(NC1CCCc2ccccc21)C1CCN(S(=O)(=O)c2cccc3nsnc23)CC1 (centres undefined) | -3 | -2 | -1.1 | 4% | 6.4 | 0.5 | -2
48 | O/N=C(\c1ccc(Cl)cc1Cl)c1ncc(C(F)(F)F)cc1Cl | 2 | 5 | 0.0 | 4% | -0.5 | 0.9 | -2
49 | CCc1ccc(CCC(=O)Nc2ccc(Cl)cc2)o1 | 78* | -8 | -1.5 | 2% | 10 | 2.2 | -17
50 | CC(=O)Nc1ccc(NC(=O)C(C)OC(=O)c2cccc(S(=O)(=O)N3CCCCCC3)c2)cc1 (centres undefined) | 0 | -5 | 2.6 | · | -2.6 | -0.7 | 5

Some entries already given with just Vif TR-FRET and B2AR ag.
# | SMILES | Vif TR-FRET | B2AR ag
42 | COc1cc(C)nc(NC(=O)COc2ccc(Cl)cc2C)n1 | -1% | -8
43 | O=C1ON=C(c2ccccc2)/C1=C/c1ccccc1 | · | 8

(list continues)
no. | Compound | ALR inh | B2AR ag | RanGTP-Imp inh | Vif TR-FRET | LANA-H2B inh | HNF4A DNA FP | Calb FLC
51 | CCOc1ccc(C(CC(=O)O)NC(=O)C23CC4CC(CC(C4)C2)C3)cc1OC (centres undefined) | -14 | -5 | -1.4 | 6% | -4.7 | 0.0 | -10
52 | COc1ccc(CCN(C)CCC(=O)Nc2ccc(C)cc2)cc1OC | · | -8 | -0.5 | 31% | -42 | -0.7 | 1
53 | Cc1ccc(NC(=S)NNc2ncc(C(F)(F)F)cc2Cl)cc1 | -9 | -3 | -2.0 | 67% | -2.6 | -3.9 | 2
54 | CCOc1cccc(/C=N/NC(=O)C2CCCC2)c1O | ? | -1 | 3.6 | · | -4.1 | 0.7 | -2
55 | Cc1ccccc1NC(=O)Cn1nc(C(=O)O)c2ccccc2c1=O | -1 | -14 | 0.2 | · | 1.1 | -1.3 | 1
56 | CC(C)CC(c1nnnn1CC1CCCO1)N1CCN(c2nc3ccccc3s2)CC1 (centres undefined) | · | -6 | -1.5 | ? | · | 0.9 | -16
57 | O=C(NC1CC1)c1cccc(S(=O)(=O)N2CCOCC2)c1 | · | 7 | · | 24% | 1.2 | 2.0 | ·
58 | O=C(CN1C(=O)NC2(CCCC2)C1=O)Nc1ccccc1N1CCCC1 | 99* | -2 | 1.3 | 8% | -6.9 | -3.2 | 5
59 | CC1CCCC(C)N1C(=O)COC(=O)C1CCN(S(=O)(=O)c2c(Cl)cccc2Cl)CC1 (centres undefined) | 3 | -10 | -3.0 | -6% | -15 | 2.6 | -9
60 | CC1CCCCC1NC(=O)c1ccc(S(=O)(=O)N2CCN(C)CC2)cc1 (centres undefined) | · | -6 | -4.6 | -1% | -1.3 | 1.1 | 2
61 | CCn1nc(CC(=O)O)c2ccccc2c1=O | -3 | -5 | 3.8 | · | 5.1 | 22 | -21
62 | CN(Cc1ccccc1)C(=O)c1nc2ccccn2c1CN1CCc2sccc2C1 | 0 | 1 | 4.9 | -7% | -13 | -1.6 | -9
63 | Cc1cc2cc(CNC(=S)Nc3ccc(OC(F)(F)F)cc3)ccc2n1C | -8 | 4 | -0.5 | 26% | -5.1 | -2.8 | -5
64 | Cc1cc(NS(=O)(=O)c2ccc(Nc3nc(-c4sc(N)nc4C)cs3)cc2)no1 | 99* | 4 | 2.4 | 29% | 0.9 | 2.6 | 7
65 | CC(C)C1C(C#N)=C(N)SC(N)=C1C#N | 22 | 2 | 8.4 | ? | -6.9 | -1.6 | 5
66 | O=C(NCCS(=O)c1ccc(Cl)cc1)c1cccc(Cl)c1 (centres undefined) | -10 | 1 | 2.4 | -2% | 3.4 | 1.5 | 1
67 | O=C(Cn1nnc(-c2cccs2)n1)NCCc1ccccc1 | 3 | -9 | 9.7 | 8% | -2.6 | -3.0 | -12
68 | Nc1nc2c3ccccc3nc(C3CC3)n2n1 | -17 | 12 | 3.9 | 24% | -0.7 | -2.1 | 2
69 | Cc1cc(SCC(=O)NC(=O)NCc2ccco2)nc2ccccc12 | 98* | 0 | -3.5 | 18% | -3.3 | 1.6 | -6
70 | CC(CCc1ccccc1)NC(=O)CCNC(=O)c1ccccc1Cl (centres undefined) | -3 | -7 | · | · | -2.3 | 1.6 | ·
